Calb FLC: affects C. albicans growth with fluconazole; C. albicans CaCi-2 (fluconazole-resistant clinical isolate) + fluconazole, Alamar Blue growth, 48 h; growth inhibition, % (no concentration beside the values); 300,000 tested, 0.57% active;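 active = most replicates above 75%; inconclusive = exactly half above 75%; inactive = most below 75%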;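 note: all wells also contain fluconazole at 8 µg/ml as a sub-toxic cotreatment; 0% = median of DMSO wells and 100% = median of geldanamycin control wells; wells of about 8 µL received 7.5 nL stock; the first replicate is given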
LANA-H2B inh: blocks KSHV LANA binding to histone H2A/H2B. cell-free LANA-H2A/H2B peptide, fluorescence polarization. Q9QR71. AID 2629. inhibition, % (test concentration not listed). 320,000 tested, 0.6% active; in the data active = inhibition mostly above about 10%, no sharp cut-off; inactive = mostly below about 6.7%;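 note: stock transfer was 7.5 nL into about 10 µL; 0% = median of vehicle wells and 100% = median of positive control wells; one replicate is shown; the record names a cut of 25% in any replicate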
UCH37 inh: blocks the human deubiquitinase UCH37. Q9Y5K5. purified proteasome/UCH37, Ub-AMC cleavage fluorescence. inhibition, % (test concentration not listed). 330,000 tested, 0.33% active. AID 588478;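 active = mean of two replicates above 20%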;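 note: 0% = compound-free wells with enzyme and 100% = wells lacking proteasome; stock transfer was 100 nL into about 20 µL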
Target sequence (Q9Y5K5 whole entry, looked up): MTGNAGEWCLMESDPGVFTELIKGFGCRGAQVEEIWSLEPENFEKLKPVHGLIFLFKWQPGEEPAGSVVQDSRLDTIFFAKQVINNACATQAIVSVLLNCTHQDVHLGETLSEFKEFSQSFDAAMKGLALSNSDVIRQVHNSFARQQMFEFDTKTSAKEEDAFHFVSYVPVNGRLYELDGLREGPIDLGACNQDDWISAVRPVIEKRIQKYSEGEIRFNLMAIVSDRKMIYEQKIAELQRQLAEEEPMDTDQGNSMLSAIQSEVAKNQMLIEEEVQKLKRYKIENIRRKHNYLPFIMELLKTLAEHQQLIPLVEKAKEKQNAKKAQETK
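system = Proteasome-associated human UCH37 deubiquitinase | amount = 0.15 nM proteasome as dispensed | medium = pH 7.4 Tris-HCl (50 mM) with ovalbumin, ATP-MgCl2, DTT | incubation = 30 min preincubation with enzyme, 25 min cleavage at room temperature | detection = AMC fluorescence 355/460 nm | read-out basis = percent inhibition | controls = no-proteasome and no-compound wells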
RanGTP-Impb inh: disruptors of Ran-importin-beta complex formation – biochemical, FRET, CFP-Ran, YFP-importin-beta, homogeneous, primary screen | 300,000 tested, 1.1% active | AID 2216 | cell-free CFP-Ran/YFP-importin-beta FRET ratio | inhibition, % (no concentration beside the values);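 active = most replicates above 15%; inconclusive = exactly half above 15%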;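 note: 0% = DMSO wells and 100% = Ran loaded with GDP instead of GTP; wells of about 40 µL received 100 nL stock; the first replicate is given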
B2AR ag: human beta-2 adrenergic receptor agonism by FAP | P07550 | Am2.2-beta2AR cells, FAP receptor internalization, flow cytometry; reference of the scale not given here | response, % (no concentration beside the values) | 340,000 tested, 0.43% active;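 active = response above a set limit, near 3 SD of response in nonfluorescent compounds, cut at about 42% in these data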;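 note: stock transfer was 100 nL into about 11 µL; a reference agonist was the positive control; negative values mostly stem from fluorescent compounds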
Target sequence (P07550 whole entry, looked up): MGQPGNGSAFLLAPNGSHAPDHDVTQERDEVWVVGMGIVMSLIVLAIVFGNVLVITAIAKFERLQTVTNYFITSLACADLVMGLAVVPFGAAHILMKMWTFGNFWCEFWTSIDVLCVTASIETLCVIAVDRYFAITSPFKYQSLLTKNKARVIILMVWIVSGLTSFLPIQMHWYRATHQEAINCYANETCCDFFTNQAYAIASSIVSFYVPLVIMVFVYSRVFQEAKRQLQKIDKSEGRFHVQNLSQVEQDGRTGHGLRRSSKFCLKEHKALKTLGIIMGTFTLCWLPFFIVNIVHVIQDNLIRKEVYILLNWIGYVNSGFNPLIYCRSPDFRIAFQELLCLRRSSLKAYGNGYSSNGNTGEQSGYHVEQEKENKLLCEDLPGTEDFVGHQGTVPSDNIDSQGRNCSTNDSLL
Beta cell apopt: blocks beta cell apoptosis; INS-1E cytokine-induced death, ATP luminescence, 48 h; percent of positive-control rescue, neutral wells zero; protection from apoptosis, % (test concentration not listed); 300,000 tested, 0.8% active;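 active = all replicates at 75% or more, or half of them and the mean; inconclusive = half reach 75% but not the mean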;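 note: 0% = cytokine-treated negative control wells and 100% = positive control rescue; higher means more ATP so stronger rescue from cytokine killing; wells of about 40 µL received 100 nL stock; the first replicate is given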
T cruzi repl: T. cruzi replication inhibition; T. cruzi beta-gal in NIH3T3, luminescence, 90 h; inhibition, % (concentration not given with the values); 300,000 tested, 1.4% active;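 active = mean inhibition across valid replicates above about 55%, limit read from the data; inconclusive = mean below that limit but half or more replicates reach it; inactive = mean below it, under half of replicates reach it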;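 note: signal also drops with host cell toxicity which is not excluded here; 0% = plate median of DMSO wells and 100% = zero luminescence signal; higher percent means less beta-gal luminescence so fewer parasites; stock transfer was 50 nL into about 50 µL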
Bfl-1 A1 inh: inhibitors of the anti-apoptotic protein A1, read as caspase activation; MEF A1-2A-BIM cells, Caspase-Glo 3/7 luminescence, 3 h; percent of clofoctol response, vehicle zero; caspase activation, % (test concentration not listed); 330,000 tested, 0.066% active; AID 2462;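 active = over half of replicate activation scores above 10%, or exactly half above 10 with the replicate mean above 10; inconclusive = replicate mean below 10 yet half the replicates above 10; inactive = over half of replicates below 10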;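 note: wells of about 30 µL received 50 nL stock; many hits fall short of the cut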
* = called active by the depositor; i = inactive; u = inconclusive; x = no result given.

Values run as follows: Calb FLC	LANA-H2B inh	UCH37 inh	RanGTP-Impb inh	B2AR ag	Beta cell apopt	T cruzi repl	Bfl-1 A1 inh
[1] CCOC(=O)c1ccccc1NC(=O)C1CC(=O)N(c2ccccc2)C1 (stereo not given)
  6	-5.3	3.1	0.2	-2	-9	7	0.1
[2] CCOc1cccc2cc(C(=O)Oc3ccc(OC)cc3)c(=O)oc12
  8	0.5	4.0	6.5	-1	-4	-10	0.1
[3] Cc1cccc(NC(=O)COn2nnc3ccc(S(C)(=O)=O)cc32)c1
  -7	x	0.7	7.1	-2	0	4	-0.4
[4] CCOc1ccccc1N1CCN(C(=O)Nc2cccc(Cl)c2)CC1
  2	-2.2	-0.3	0.5	8	0	2	0.1
[5] CC1CC(C)CN(C2CCCCC2NS(=O)(=O)c2ccc(Cl)cc2)C1 (stereo not given)
  -10	3.6	2.7	-1.4	0	7	13	0.3
[6] COc1ccc(Nc2c3c(nc4ccccc24)CCC3)c(OC)c1
  -2	0.9	7.3	3.5	-16	15	30	-0.6
[7] N#CCOC(=O)c1sccc1-n1cccc1
  -10	0.7	6.3	-3.4	-10	x	-22	-0.4
[8] CC(C)(C)CC(=O)Nc1cccc(-c2cn3cccnc3n2)c1
  -8	3.1	i	x	-1	-2	-2	-0.1
[9] CCCCn1c(N)c(N(CCOC)C(=O)C(C)Oc2ccc(Cl)cc2)c(=O)[nH]c1=O (stereo not given)
  5	x	0.9	0.9	-2	2	-4	-0.2
[10] COc1ccc(C2CC(c3cccs3)=NN2C(=O)CSC2=NN3CCCC(=O)N=C3S2)cc1 (stereo not given)
  -2	4.3	5.9	-1.5	-8	3	10	-0.3
[11] CCOc1ccc(C(=O)NCCc2cnc[nH]2)cc1
  -1	-1.2	3.7	-4.7	-1	-6	50	-0.3
[12] CCc1ccc(NC(=O)CSc2nnc(C3CC3)n2CC2CCCO2)cc1 (stereo not given)
  -3	1.5	0.5	-1.6	-3	-1	3	0.2
[13] Cc1sc(NC(=O)/C=C/c2ccc(C(C)C)cc2)c(C#N)c1C
  -2	2.9	-102	1.0	1	x	-18	-0.5
[14] CCNc1nc(NC(C)C)nc(OCCOC(=O)c2ccccc2)n1
  -8	6.0	0.3	-5.2	-5	x	9	-0.8
[15] CCOc1cc(S(=O)(=O)NCc2ccccn2)ccc1Cl
  11	4.8	-0.4	-0.7	2	-1	-8	1.0
[16] S=C(NCCc1ccccc1)N/N=C/C1CCCCC1
  -4	-4.0	x	0.3	x	3	1	-0.7
[17] Cc1ccc(C)c(OCCC(=O)OCC(=O)N2c3ccccc3NC(=O)C2(C)C)c1
  x	12*	-0.7	x	0	-6	x	-0.4
[18] Cc1cccc(-c2nc3c(c(SCC(=O)N4CCOCC4)n2)COC(C)(C)C3)c1
  -8	-4.3	2.9	6.0	-5	-4	16	0.0
[19] CC12CCC(C(=O)Nc3c(Cl)cccc3Cl)(C(Br)C1=O)C2(C)C (stereo not given)
  -8	-4.6	1.8	-1.1	-1	-9	-11	0.5
[20] O=C(N/N=C/C=C\c1ccccc1[N+](=O)[O-])c1ccccn1
  -13	0.9	x	u	2	-7	-21	0.4
[21] Cc1cccc(-n2ccnc2SCC(=O)Nc2ccc3c(c2)OCCO3)c1
  -9	1.4	1.5	1.7	-1	2	-1	-0.3
[22] O=C1CCC/C(=N\NC(=O)NC2CCCCC2)C1
  11	-1.4	x	-3.7	1	-2	-13	-1.4
[23] CCN(CC)C(=O)C1CCCN(Cc2ccc(F)c(F)c2)C1 (stereo not given)
  23	-16	2.4	8.4	1	-4	44	0.0
[24] COc1ccccc1C1CC(c2ccc(F)cc2)Nc2ncnn21 (stereo not given)
  u	1.4	2.3	u	0	5	2	0.4
[25] Cn1c(=O)cc(SCC(=O)NCc2ccc(F)cc2)c2ccccc21
  28	-1.8	3.6	-0.8	2	-4	-3	0.1
[26] CCc1cc2c(NCC3CCCO3)ncnc2s1 (stereo not given)
  16	-4.7	-6.6	-2.5	0	7	-11	0.8
[27] COC(=O)c1cccc(NC(=O)Nc2ccc(Cl)c(Cl)c2)c1
  -48	-0.4	6.0	u	14	82*	55*	0.0
[28] O=C(c1ccc(F)cc1)c1cc2ccccc2o1
  -15	4.1	0.8	-0.4	9	2	-8	x
[29] Cc1cc(C)n(-c2nnc(C)n2/N=C/c2ccccc2F)n1
  -1	-0.7	x	u	-3	-11	0	-0.5
[30] O=C(Nc1nccs1)c1sc2cc(Cl)ccc2c1Cl
  u	0.7	-109	-1.0	-1	22	59*	-2.0
[31] Cc1cc(S(=O)(=O)N(Cc2ccc3c(c2)OCO3)CC2CCCO2)ccc1-n1cnnn1 (stereo not given)
  -3	8.7	0.9	-0.3	1	2	26	0.7
[32] C[C@@H]1NS(=O)(=O)[C@H]2C[C@@H]3C=C[C@]2(O3)[C@H]1OC(=O)c1ccc(C(C)(C)C)cc1
  x	-4.1	-1.9	x	1	-4	x	-2.0
[33] Cc1noc(C)c1CSCC(=O)Nc1cc(S(=O)(=O)N2CCCCC2)ccc1OC(C)C
  -1	1.2	3.9	1.9	5	4	12	0.5
[34] O=C(Nc1cccc([N+](=O)[O-])c1)c1cc(S(=O)(=O)N2CCOCC2)cs1
  6	1.7	-0.2	-2.5	7	-7	-4	-0.4
[35] Cn1c(=NC(=O)C2CC2)sc2cccc(F)c21
  0	-3.0	2.7	-0.4	-8	3	-8	-0.6
[36] CCn1cc(C(=O)NN)c(=O)c2cc(F)c(N3CCN(C)CC3)cc21
  13	2.5	-1.4	-2.5	0	-1	18	0.0
[37] Cc1c(CC(=O)NCC(=O)N[C@H](Cc2ccccc2)C(=O)O)c(=O)oc2cc(O)ccc12
  -3	-1.6	-479	16*	-5	-3	-21	1.0
[38] CC(C)(C)OC(=O)N1CC2Cc3[nH]c(=O)ccc3C(C2)C1 (stereo not given)
  -1	6.3	1.0	0.2	4	-11	0	-0.6
[39] CC(Nc1nc(N2CCN(S(C)(=O)=O)CC2)nc2ccccc12)c1ccccc1 (stereo not given)
  6	-0.7	-155	3.5	-3	4	13	-0.9
[40] C=CCSc1nc2ccccc2c(=O)[nH]1
  -10	-0.4	4.7	2.5	-13	-1	-8	0.0
[41] COc1ccc(S(=O)(=O)N2CCC(NC(=O)C3CCCCC3)CC2)cc1
  -7	-0.8	2.3	-0.8	-2	-3	13	-0.3
[42] O=C(N/C=C\c1ccccc1)NCc1ccc(Cl)cc1Cl
  7	0.0	x	-1.3	-1	-12	13	1.0
[43] O=C(Nc1ccc(F)cc1)N1CCN(CCc2ccccc2)CC1
  3	0.1	2.7	6.6	2	2	-32	0.0
[44] CC(CNC(=O)COc1ccc2c(c1)OCO2)c1ccccc1 (stereo not given)
  x	1.8	2.7	x	-9	2	x	0.0
[45] CCOc1cc(/C=C2\C(=N)N3N=C(S(=O)(=O)CC)SC3=NC2=O)ccc1OC(=O)c1ccco1
  30	-4.9	7.2	-0.6	8	3	-6	1.8
[46] COCCOC(=O)c1c(C)oc2ccc(OS(C)(=O)=O)cc12
  11	-0.5	1.7	0.0	2	-2	-2	0.9
[47] CCCOC(=O)C1=C(C)NC(=O)NC1c1ccc(Br)s1 (stereo not given)
  4	6.9	3.6	0.7	2	3	5	0.3
[48] C=CCNc1nc(Cl)nc(Nc2ccccc2)n1
  4	4.0	4.7	1.1	3	-4	-3	-2.4
[49] O=c1oc2ccccc2n1CSC1=NCCS1
  -9	-0.8	2.8	1.1	-6	-9	-12	-0.7
[50] CN1CCN(C(=O)N2c3ccccc3C=Cc3ccccc32)CC1
  -2	-0.9	-0.1	5.4	6	-9	-21	-0.1
[51] COCCn1nnnc1CN1C2CCCC1CC(NC(C)=O)C2 (stereo not given)
  -12	-0.6	1.0	2.2	3	1	-8	0.4
[52] Cc1cc(C(=O)COC(=O)C2=NNC(=O)CC2)c(C)n1CCc1ccccc1
  -26	0.1	-1.2	-0.1	4	-5	5	-0.7
[53] COc1ccc(CNCCNC(=O)c2cccs2)cc1OC
  -18	0.1	1.2	3.8	-8	-2	10	-1.0
[54] Cn1ncc2c(O/N=C(\N)c3ccc(C(C)(C)C)cc3)ncnc21
  -2	3.9	x	1.5	49*	110*	64*	1.2
[55] CCOc1ccc2nc(SCC(=O)NCc3ccc(S(N)(=O)=O)cc3)sc2c1
  8	-4.9	-1.1	-1.4	1	-3	8	-0.6
[56] C=CCOC(=O)C1=C[C@@H](c2ccc3c(c2)OCO3)C[C@@H](OCc2ccc(CO)cc2)O1
  -19	6.0	-3.1	-1.9	0	-6	5	0.7
[57] CCn1cc(C(=O)O)c(=O)c2cnc(N3CCN(C(=S)Nc4ccc(F)cc4)CC3)nc21
  5	7.6	1.7	1.3	x	-9	2	-0.6
[58] Cc1cc(=O)oc2cc(OCCSCCN3CCOCC3)ccc12
  -10	1.1	-15	-1.4	2	-2	-3	0.3
[59] Cc1cnc(C(=O)N2CCCC(C(=O)c3cccc(OC(C)C)c3)C2)cn1 (stereo not given)
  -6	0.4	3.4	0.6	15	-1	-8	0.3
[60] COC(=O)[C@H]1C[C@@H]1[C@H](NC(=O)c1ccccc1)c1ccccc1
  5	12	3.4	-3.8	-3	1	-13	1.0

Later entries:
Values run as follows: Calb FLC	LANA-H2B inh	UCH37 inh	RanGTP-Impb inh	B2AR ag	Beta cell apopt	T cruzi repl	Bfl-1 A1 inh
[61] CCn1c(N)c(C(=O)N2CCOCC2)sc1=S
  4	-11	3.9	-6.4	-3	-4	-13	-4.5
[62] O=C(CSc1nnc(-c2ccccc2)n1Cc1ccco1)Nc1ccc2c(c1)OCCO2
  -22	-1.8	2.5	-1.5	-14	1	1	0.5
[63] COc1ccc(N2CCN(C(c3ccccc3)c3sc4nc(C)nn4c3O)CC2)cc1 (stereo not given)
  0	-2.3	1.8	0.9	4	-7	-1	1.2
[64] CN(CCC(=O)c1ccccc1)CCC(=O)c1ccccc1
  -3	-0.9	3.3	u	4	-10	-1	0.6
[65] O=C(CCC(=O)c1cccs1)Nc1ccccc1F
  3	2.3	-0.6	-3.9	7	-1	-13	-1.3
[66] Cc1csc(=O)n1CCC(=O)OCC(=O)Nc1ccc(F)c(F)c1F
  2	4.9	4.1	1.1	-3	-10	-5	1.2
[67] O=Cc1ccccc1-n1cccn1
  -14	4.3	-0.3	2.2	3	-4	-13	0.7
[68] Cc1ccc(C(=O)Nc2nc3ccc(S(C)(=O)=O)cc3s2)o1
  -4	1.4	7.0	1.9	1	25	-10	-15
[69] CCCCN1C(=O)C(C)=C(C)C1OCCc1ccc(OC)c(OC)c1 (stereo not given)
  4	-0.5	-0.9	0.6	-3	-2	2	-0.7
[70] CCOP(=O)(OCC)c1nc(-c2ccc(Cl)cc2Cl)oc1N1CCCCC1
  3	-1.3	-18	2.4	3	4	7	-0.3
[71] C/C(Cc1ccccc1)=N\NC(=O)CNC(=O)c1cccc(F)c1
  -1	-5.9	x	u	12	0	-5	0.0
[72] NC(=O)c1ccc(NC(=O)CCC(=O)N2CCN(S(=O)(=O)c3ccc(Cl)cc3)CC2)cc1
  -5	4.1	-0.4	8.0	0	-1	-4	-0.3
[73] Nc1ccccc1Sc1nc2ccccc2[nH]1
  7	0.0	3.1	0.8	9	18	52	-0.3
[74] O=C(CN1C(=O)NC2(CCCCCCC2)C1=O)Nc1ccc(Br)cc1
  x	-1.5	0.3	x	8	-7	x	0.4
